Assay outcomes: PubChem BioAssay, ICCB-Longwood Screening Facility, Harvard Medical School
GIV Gai3 FP – inhibitors of GIV GBA-motif binding to rat Galpha-i3. P08753. Galpha-i3/FITC-GIV peptide fluorescence polarization, 90 min; active compounds read low; scaled: aluminum fluoride 0%, vehicle 100%. percent of control (FP), % (concentration not given with the values). 0.42% of 210,000 active. AID 1224905;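 active = replicate mean at 85% of control or lower, very high polarization wells dropped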;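 also: wells of about 15 µL received 100 nL stock; the first replicate is given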
Target sequence (P08753 whole entry, looked up): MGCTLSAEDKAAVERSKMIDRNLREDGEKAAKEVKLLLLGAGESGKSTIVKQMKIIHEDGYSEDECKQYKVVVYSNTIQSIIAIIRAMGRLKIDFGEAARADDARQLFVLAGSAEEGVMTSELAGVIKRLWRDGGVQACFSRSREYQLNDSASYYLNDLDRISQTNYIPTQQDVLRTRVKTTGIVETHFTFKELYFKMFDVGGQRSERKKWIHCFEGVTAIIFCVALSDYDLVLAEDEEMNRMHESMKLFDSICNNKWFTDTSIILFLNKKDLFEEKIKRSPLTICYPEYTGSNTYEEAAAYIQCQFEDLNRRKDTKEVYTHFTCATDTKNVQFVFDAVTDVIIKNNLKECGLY
HCMV NEC inh – inhibitors of HCMV UL50-UL53 nuclear egress complex interaction | 0.15% of 190,000 active | inhibition, % (test concentration not listed) | AID 1918969 | HTRF UL50-UL53 interaction, normalized percent inhibition;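 active = both replicates at 50% or more, plus weaker picks with an unusually low signal ratio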;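 also: stock transfer was 100 nL into about 20 µL; 0% = negative control wells and 100% = wells with untagged competitor protein; inactives centre near -12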
Sa growth 42C – S. aureus growth inhibition; S. aureus RN4220 growth, OD600, 20 h, 42 °C; active compounds read low; 0.53% of 170,000 active; relative growth, % (no concentration beside the values);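 active = growth at 42 °C up to 50% and 20 or more points under that at 30 °C, or under 10% at both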;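 also: 300 nL library stock went into each well; scaled to the means of positive and negative controls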
Sa growth 42C second temp – recorded beside Sa growth 42C, whose call it bears; relative growth, %; measured here: growth at 30 °C;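 optical density after 20 h as mean of two plates; 100% = untreated growth and lower means inhibition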
Starred values were filed as active, the others as inactive; / = not tested or not shown; & = joins results of further samples.

No.	SMILES	GIV Gai3 FP	HCMV NEC inh
1	Cc1ccc(C2c3cccn3-c3c(c(C)nn3-c3ccccc3)CN2C(=O)Nc2ccc3c(c2)OCO3)cc1 (stereo unspecified)	104	8
2	Cc1cc(C)cc(C(=O)n2nc(C)c(S(=O)(=O)N3CCOCC3)c2C)c1	107	/
3	Cc1ccc(-n2nc(N3CCN(S(=O)(=O)c4cccc5nsnc45)CC3)ccc2=O)cc1C	104	-29
4	COc1cc(OC)cc(C2=NC(C)(C)CO2)c1	105	/
5	Nc1c(C(=O)Nc2cccc(F)c2)sc2nc(-c3cccs3)ccc12	108	-25
6	CC(=O)Nc1ccc(C)cc1-c1nnc(SC(C)C(=O)Nc2ccc(C)cc2C)[nH]c1=O (stereo unspecified)	97	-24
7	CCCCNc1c(Cl)cnn(-c2ccccc2)c1=O	100	-63
8	COc1cc(OC)cc(-c2cc3nc(C4CCNCC4)cc(=O)n3[nH]2)c1	107	-16
9	COc1ccccc1NC(=O)CC1C(=O)Nc2ccccc2N1C(=O)c1ccccc1 (stereo unspecified)	/	4
10	O=C1c2ccccc2S(=O)(=O)N1Cc1cccc(S(=O)(=O)N2CCOCC2)c1	/	13

No.	Sa growth 42C	Sa growth 42C second temp
1	/	/
2	96	95
3	/	/
4	100	77
5	98	90
6	/	/
7	93	97
8	105	88
9	106	92
10	108	100

Copied from the list.
COc1cc(OC)cc(-c2cc3nc(C4CCNCC4)cc(=O)n3[nH]2)c1 @ Sa growth 42C second temp = 88
Cc1ccc(C2c3cccn3-c3c(c(C)nn3-c3ccccc3)CN2C(=O)Nc2ccc3c(c2)OCO3)cc1 (stereo unspecified) @ GIV Gai3 FP = 104

The listing continues:
No.	SMILES	GIV Gai3 FP	HCMV NEC inh
11	CCN(CC)S(=O)(=O)c1ccc(NC(=O)COC(=O)c2cncc(Br)c2)cc1	/	1
12	COc1ccc(-c2cn3c(n2)-c2ccccc2C3)cc1OC	/	-7
13	CCOc1ccc(/C=C2/C(=O)NC(=O)N(C3CCCCC3)C2=O)cc1	102	-1
14	Cc1cccc(C(=O)NC2(C(F)(F)F)N=C(c3ccccc3)N(Cc3ccccc3)C2=O)c1 (stereo unspecified)	104	10
15	CCc1ccccc1NC(=O)Cc1ccc(-n2c(C)nc3cccnc32)cc1	109	/
16	O=S(=O)(Nc1ccc(-c2cn3ccccc3n2)cc1)c1ccc(F)cc1	100	-5
17	COc1ccc(-c2noc(N3CCC(C(=O)NCCC4=CCCCC4)CC3)n2)cc1	104	-8
18	CCCOc1ccc(-c2nn(-c3ccccc3)cc2C2NC(=O)NC(C)=C2C(=O)OC(C)C)cc1 (stereo unspecified)	107	-18
19	CC(C)CCNC(=O)c1cc(-c2ccc(Br)s2)nc2ccccc12	91	-7
20	Cc1nc(Cl)c(C#N)c2c1CCCC2	111	10

No.	Sa growth 42C	Sa growth 42C second temp
11	108	96
12	101	73
13	123	99
14	106	97
15	87	103
16	/	/
17	/	/
18	104	91
19	112	86
20	108	89

The list continues.
No.	SMILES	GIV Gai3 FP	HCMV NEC inh
21	O=C(CC(c1ccc(F)cc1)N1Cc2ccccc2C1=O)NCc1cccnc1 (stereo unspecified)	100	0
22	CCOC(=O)c1cc(C)nc(N2CCC(C(N)=O)CC2)c1C#N	104	-72
23	O=C1N(Cc2cc(=O)n3ccccc3n2)c2ccccc2S(=O)(=O)N1c1ccc(Cl)cc1	85*	/
24	COc1ccc(CNC(=O)c2cc3cc4cc(OC)ccc4nc3o2)cc1	106	-1
25	CC1CCCCC1NC(=O)COC(=O)c1ccc2c(c1)NC(=O)CS2 (stereo unspecified)	/	9
26	N#CCOc1ccc2c(C#N)c3ccccn3c2c1	108	-4
27	COC(=O)C1(C)NC(c2ccc(OC)cc2)C2C(=O)N(c3ccccc3)C(=O)C21 (stereo unspecified)	99	-25
28	Cc1ccc(-n2c(SCC(N)=O)nc3ccccc3c2=O)cc1	/	-5
29	Cc1ccc(NC(=O)/N=C2/NC(=O)C(C(C)C)O2)cc1 (stereo unspecified)	/	-8
30	CCOC(=O)c1c(C)[nH]c(C(=O)N2CCCC(C(=O)NC(C)C)C2)c1C (stereo unspecified)	100	-22

No.	Sa growth 42C	Sa growth 42C second temp
21	/	/
22	97	98
23	90	70
24	104	78
25	100	103
26	/	/
27	100	85
28	96	94
29	76	53
30	/	/

Additional structures follow:
No.	SMILES	GIV Gai3 FP	HCMV NEC inh
31	c1ccc(Nc2nc3ccccc3n3cnnc23)cc1	109	/
32	C1C/C(=N/N=C2\CCCc3nonc32)c2nonc2C1	109	-17
33	CCc1ccc(NC(=O)c2ccc3[nH]c(C)c(C)c3c2)cc1	112	/
34	CCOC(=O)Cn1cc(/C=C2\C(=O)NC(=O)N(c3ccc(F)cc3)C2=O)c2ccccc21	-36*	/
35	COc1ccccc1CNC(=O)c1nc[nH]c1C(=O)NCc1ccccc1	100	-15
36	O=C(NC1CCCC1)c1cc(-c2ccc(Cl)cc2)on1	104	0
37	CSc1nnnn1-c1cccc(O)c1	110	-8
38	Cc1cccc(NC(=O)CSc2nc3c(c(=O)[nH]2)CN(Cc2ccccc2)CC3)c1	98	-6
39	Cc1cccc(Cn2nnc3c(=O)[nH]c(C4CCN(C(=O)c5ccc(F)cc5)CC4)nc32)c1	104	11
40	COc1ccc(CCNC(=O)c2cc3n(n2)CCCN(Cc2ccc(C)cc2)C3=O)cc1OC	98	/

No.	Sa growth 42C	Sa growth 42C second temp
31	70	71
32	98	97
33	103	104
34	120	82
35	/	/
36	107	95
37	107	94
38	/	/
39	2.7*	16*
40	103	90

Of the compounds above, 4 contain a Cl atom:
No.	SMILES	GIV Gai3 FP	HCMV NEC inh
7	CCCCNc1c(Cl)cnn(-c2ccccc2)c1=O	100	-63
20	Cc1nc(Cl)c(C#N)c2c1CCCC2	111	10
23	O=C1N(Cc2cc(=O)n3ccccc3n2)c2ccccc2S(=O)(=O)N1c1ccc(Cl)cc1	85*	/
36	O=C(NC1CCCC1)c1cc(-c2ccc(Cl)cc2)on1	104	0

No.	Sa growth 42C	Sa growth 42C second temp
7	93	97
20	108	89
23	90	70
36	107	95

Remaining list, next part:
No.	SMILES	GIV Gai3 FP	HCMV NEC inh
41	C=CCn1c(COc2cccc3cccnc23)nnc1SCC(=O)O	100	-35
42	Cc1nn(C(C)C(=O)Nc2cc(F)ccc2F)c(=O)c2nn(-c3ccccc3)c(C)c12 (stereo unspecified)	108	-8
43	CCOC(=O)c1ccc(NC(=O)CSc2nnc(CNc3ccc(C)cc3C)n2Cc2ccco2)cc1	96	-10
44	COc1ccc(N2Cc3ccccc3C3(CCOCC3)C2=N)cc1	/	-12
45	Cc1ccccc1CS(=O)(=O)Cc1ccc(C(=O)NCCC(C)C)o1	97	6
46	CC(=O)c1cc(-c2ccc(F)cc2)n(CC(=O)NCc2ccc(C)cc2)c1C	106	/
47	Cc1cc(=O)[nH]c(SCCC(=O)O)n1	98	-5
48	CCOC(=O)c1ccc(NC(=O)CCn2c(=O)c3cccn3c3ccccc32)cc1	103	10
49	CCC(=O)N1C(C(=O)NCc2ccc(OC)cc2)CSC1c1ccc(OC)cc1 (stereo unspecified)	111	9
50	COc1ccc(NC(=O)Cn2c(=O)n(Cc3ccco3)c(=O)c3sc4ccccc4c32)c(OC)c1	101	-31

No.	Sa growth 42C	Sa growth 42C second temp
41	92	91
42	/	/
43	116	110
44	88	104
45	81	79
46	124	84
47	111	101
48	92	88
49	96	86
50	100	85

Continued:
No.	SMILES	GIV Gai3 FP	HCMV NEC inh
51	O=C(Nc1ccc(Cl)cc1)c1cccc(NC2=NC3CS(=O)(=O)CC3S2)c1 (stereo unspecified)	105	-32
52	Cc1ccc(C(=O)CSC#N)o1	/	-26
53	C=CCN1C(=O)c2ccc(C(=O)OCc3nc4cc(C(=O)OC)ccc4c(=O)[nH]3)cc2C1=O	/	-31
54	CN(C(=O)Cc1ccc(Br)cc1)c1ccccc1	98	-10
55	COc1cc(CC(=O)Nc2ccccc2N2CCOCC2)cc(OC)c1OC	/	-17
56	CCc1nn(CCCC(=O)NCc2ccc(OC)c(OC)c2)c(=O)c2cc3occc3n12	102	-30
57	O=c1c(Cl)c(Nc2ccc3c(c2)OCO3)cnn1C12CC3CC(CC(C3)C1)C2	98	-44
58	CCOC(=O)N1CCC(NC(=O)CCc2c(C)nc3ncnn3c2C)CC1	108	-2
59	Cc1[nH]nc2nc(SCC(=O)N3CCCC3)n(-c3ccc(Br)cc3)c(=N)c12	99	/
60	C/C(=N\C(=O)NN)c1cnn(-c2ccccc2)c1C	105	-15

No.	Sa growth 42C	Sa growth 42C second temp
51	/	/
52	36	32
53	76	96
54	123	101
55	91	87
56	101	81
57	97	80
58	102	83
59	100	75
60	96	77

Entries by screen from the entries so far:
Nos. 43 to 51 in GIV Gai3 FP, in turn: 96, /, 97, 106, 98, 103, 111, 101, 105

Further records:
No.	SMILES	GIV Gai3 FP	HCMV NEC inh
61	O=C(CCn1cnc2onc(-c3ccc(F)cc3)c2c1=O)N1CCN(c2cccc(Cl)c2)CC1	106	/
62	COc1cccc(NC(=O)C2CCCN2S(=O)(=O)c2ccc3c(c2)n(C)c(=O)c(=O)n3C)c1 (stereo unspecified)	103	-16
63	Cc1ccc(C)c(NC(=O)C2CCCN(c3cnccn3)C2)c1 (stereo unspecified)	102	5
64	c1ccc(-n2ncc3c(N4CCCC4)ncnc32)cc1	104	37
65	O=S(=O)(Nc1ccc(-c2ccc(N3CCOCC3)nn2)cc1)c1ccc(Cl)cc1	96	-37
66	COC(=O)c1cccc(-c2ccc(/C=C(/C#N)c3ccc(Cl)cc3)o2)c1	106	-4
67	O=c1ccc2ccc(Oc3ncccn3)cc2o1	/	-30
68	CC1(NC(N)=O)CCS(=O)(=O)C1 (stereo unspecified)	/	12
69	COc1ccc(OCCOC(=O)c2n[nH]c3ccccc23)cc1	/	-20
70	COc1ccc(NC(=O)CSc2nnc3c4c(C)c(C)sc4ncn23)cc1	106	-46

No.	Sa growth 42C	Sa growth 42C second temp
61	114	74
62	103	96
63	104	103
64	119	88
65	/	/
66	112	97
67	66	90
68	99	101
69	102	96
70	/	/

Other records
No.	SMILES	GIV Gai3 FP	HCMV NEC inh
71	Cc1cccc(COn2c(=O)c[n+]([O-])c3ccccc32)c1	107	-131
72	COC(=O)C1CCN(c2cc(=O)n(-c3ccccc3Cl)c(=O)[nH]2)CC1	101	3
73	O=C1CN(C(=O)Cc2c(Cl)cccc2Cl)CCN1	/	-12
74	O=C(c1ccc(-c2ccccc2)s1)N1CCOCC1	106	/
75	CCOC(=O)C1=C(C)N=c2s/c(=C\c3cc([N+](=O)[O-])ccc3N3CCOCC3)c(=O)n2C1c1ccccc1 (stereo unspecified)	97	-3
76	O=C(O)c1cccc(N2C(=O)c3cccnc3C2=O)c1	104	-45
77	Cc1scc(CN(C)Cc2ccccc2)c1C	100	/
78	O=S(=O)(NCCC1=CCCCC1)c1ccc(-c2cc(C(F)(F)F)on2)o1	106	-9
79	COc1ccc(-n2c(=O)c3ccccc3n(Cc3ccccc3)c2=O)cc1OC	105	-1
80	Cc1ccc(Cn2nnc3c(C)nn4c(-c5cccnc5)nnc4c32)cc1	109	-11

No.	Sa growth 42C	Sa growth 42C second temp
71	98	91
72	107	96
73	81	94
74	104	97
75	/	/
76	99	82
77	89	89
78	/	/
79	104	91
80	73	79

Further records follow.
No.	SMILES	GIV Gai3 FP	HCMV NEC inh
81	CC1CC(=O)C2=C(C1)OC(N)=C(C#N)C21C(=O)Nc2ccccc21 (stereo unspecified)	105	-7
82	CSC(=S)NCc1cccs1	/	-9
83	O=C(NC(Cc1c[nH]c2ccccc12)C(=O)O)c1ccc(Cl)cc1 (stereo unspecified)	99	-2&-8
84	O=C(O)Cn1nc2ccccc2n1	98	4
85	Cc1cc(C)c(N=C2SCC(=O)N2Cc2ccco2)c(C)c1	106	-20
86	CCOC(=O)c1c(C)[nH]c(C)c1S(=O)(=O)N1CCC(C(=O)NCc2ccccc2Cl)CC1	109	/
87	COc1ccc(OC)c(N(C)S(=O)(=O)c2cc(Br)cnc2N)c1	108	/
88	C=CCNC(=O)c1ccc2c(c1)NC(=O)C(C)N2 (stereo unspecified)	190	-90
89	CCCCCn1c(C2CC(=O)N(Cc3ccccc3)C2)nc2ccccc21 (stereo unspecified)	104	-16
90	CC1=NN(c2ccccc2)C(=O)/C1=C/c1ccc(OS(=O)(=O)c2ccccc2[N+](=O)[O-])cc1	112	-31

No.	Sa growth 42C	Sa growth 42C second temp
81	99	49
82	76	81
83	122	94
84	101	92
85	78	54
86	88	96
87	123	89
88	93	74
89	/	/
90	/	/

The list goes on:
No.	SMILES	GIV Gai3 FP	HCMV NEC inh
91	Cc1nn(-c2ccccc2)c(C)c1C(=O)OCc1cccc(S(=O)(=O)N(C)C)c1	/	-8
92	COc1ccccc1-c1noc(CCCC(=O)Nc2cccc(C(F)(F)F)c2)n1	102	/
93	COc1ccc(N2C(=O)C(CC(=O)Nc3ccc(F)cc3)N(CCC3=CCCCC3)C2=O)cc1 (stereo unspecified)	98	-17
94	O=C1CC(Cc2ccccc2)C(=O)N1Cc1ccco1 (stereo unspecified)	98	-15
95	CCCOc1ccc2c3c(c(=O)oc2c1OCCC)CCC3	/	-18
96	O=C(CO/N=C/c1ccco1)NCc1ccccc1	/	-28

No.	Sa growth 42C	Sa growth 42C second temp
91	86	91
92	99	93
93	105	91
94	103	96
95	122	84
96	85	96
